# D2 PAM – Beta-Arrestin HTS for Positive Allosteric Modulators of the Human D2 Dopamine Receptor: Potentiators; DiscoveRx D2 beta-arrestin cells, luminescence, 90 min; 100% = 57 uM dopamine signal; AID 624464, 2012; actives 0.23% (n = 360,000); potentiation, % (concentration not given with the values); D(2) dopamine receptor (Homo sapiens), P14416; active = potentiation of 50% or more; inconclusive = 30% to 50%; inactive = 30% or less;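 further: compound concentration not given in the record; tested on top of an EC20 dose of dopamine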
# Target sequence (P14416 whole entry, looked up): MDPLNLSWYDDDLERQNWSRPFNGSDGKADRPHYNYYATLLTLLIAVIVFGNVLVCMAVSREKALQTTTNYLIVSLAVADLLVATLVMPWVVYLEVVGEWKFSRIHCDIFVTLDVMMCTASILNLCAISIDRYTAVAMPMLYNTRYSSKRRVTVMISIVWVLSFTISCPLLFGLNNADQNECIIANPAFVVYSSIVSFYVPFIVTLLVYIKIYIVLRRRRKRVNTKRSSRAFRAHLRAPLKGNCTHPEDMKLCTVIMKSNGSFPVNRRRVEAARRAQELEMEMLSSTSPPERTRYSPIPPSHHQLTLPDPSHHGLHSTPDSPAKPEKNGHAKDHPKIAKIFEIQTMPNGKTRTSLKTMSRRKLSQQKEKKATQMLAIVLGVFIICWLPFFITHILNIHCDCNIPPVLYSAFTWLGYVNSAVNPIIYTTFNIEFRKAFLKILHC
#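 PathHunter D2 cells, attached overnight at 37 deg C, received compound in DMSO plus dopamine at EC20 (50 nM final) for 90 min at 37 deg C. Beta-arrestin recruitment was read as luminescence after 1 h with detection reagent at ambient temperature.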
# Sfp PPTase inh – qHTS Assay for Inhibitors of Bacillus subtilis Sfp phosphopantetheinyl transferase (PPTase); 4'-phosphopantetheinyl transferase ffp (Bacillus subtilis), Q9F4F7; Potency, µM, for the others: max response, negative = inhibition, actives largely listed as inhibitors; Biochemical Sfp PPTase activity, qHTS; actives 3.5% (n = 310,000); AID 1490, 2009; active means well fitted inhibition curve with a large enough effect; inconclusive means small, poorly fitted or top-dose-only effect, or another doubt; inactive means no such curve, though single readings can be large or run the other way;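 further: the enzyme is Sfp with the accession as filed and its product quenches rhodamine fluorescence; potency means the concentration at half of the fitted maximal effect; 0% = enzyme reaction without inhibitor and -100% = no enzyme wells; top concentration of the series not given in the record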
#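 Buffer: 50 mM Hepes-Na pH 7.6, 10 mM MgCl2, 0.01% Nonidet P-40, 0.01% BSA. Enzyme 15 nM, pre-exposed to compound 15 min; substrates then added and fluorescence change tracked over 30 min.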
# TRPV1 PAM – HTS Assay for Compounds that Act as Potentiators of the Vanilloid Receptor 1. Transient receptor potential cation channel subfamily V member 1 (Homo sapiens), Q8NER1. TRPV1-expressing cells, Fluo-8 calcium influx, capsaicin EC20 potentiation; host cell line not named in the record; control for the full effect not named in the record. potentiation, % at 8.33 µM. actives 0.02% (n = 320,000). AID 540277, 2011; active means potentiation above 80%; inconclusive means 30% to 80%; inactive means below 30%; further: 0% is about no effect
#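 Cells expressing TRPV1 were dye-loaded with Fluo-8 and read kinetically: 10 s baseline, 3 min after compound (agonist portion), then 2 min after EC20 capsaicin (allosteric enhancer portion). Calcium-bound dye fluorescence at 480/520 nm.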
# ClpP mod – qHTS Assay for Activators of ClpP. ATP-dependent Clp protease proteolytic subunit (Bacillus subtilis (strain 168)), P80244. actives 1.9% (n = 340,000). AID 651965, 2013. Potency, µM (top dose mostly 57.5 µM), for the others: at the highest dose activity change, negative = active. purified B. subtilis ClpP, FRET peptide cleavage, 20 min; active = well fitted falling curve with a large enough effect; inconclusive = small, poorly fitted or top-dose-only effect; inactive = no such curve, though single readings can be large or run the other way; further: potency means the concentration at half of the fitted maximal effect; the source files actives as falling curves though it sought activators and does not explain the sign; nearly all actives have a fitted effect of over 65% in size; many hits overshoot -100%
# Target sequence (P80244 whole entry, looked up): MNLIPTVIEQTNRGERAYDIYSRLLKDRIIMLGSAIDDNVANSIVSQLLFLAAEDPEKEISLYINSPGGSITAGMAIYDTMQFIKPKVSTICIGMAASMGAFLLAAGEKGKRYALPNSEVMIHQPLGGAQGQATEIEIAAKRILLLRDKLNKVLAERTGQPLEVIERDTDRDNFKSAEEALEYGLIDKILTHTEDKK
#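 Purified B. subtilis ClpP, 10 microg/mL final in Tris/HCl pH8 with KCl, BSA, glycerol and Tween-20, cleaved an Abz/nitrotyrosine-quenched decapeptide. Fluorescence (ex 320, em 430) was read at 0 and 20 min at room temperature. Delta was normalized to 5.8 microM ADEP and DMSO/no-enzyme controls.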
# gsp ag – qHTS for Agonist of gsp, the Etiologic Mutation Responsible for Fibrous Dysplasia/McCune-Albright Syndrome: qHTS; gsp mutant cells, cAMP HTRF, 30 min; control for the full effect not named in the record; Potency, µM (titrated, usually from 76.9 µM), inactives show at the highest dose activation (cAMP increase), hits mostly activators; actives 0.13% (n = 340,000); active = well fitted activation curve with a large enough effect; inconclusive = small, poorly fitted or top-dose-only effect, or another doubt; inactive = no such curve, though single readings can be large or run the other way; cell line not stated here;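 further: phosphodiesterase inhibitor Ro 20-1724 added with compounds to block cAMP breakdown; potency means the concentration at half of the fitted maximal effect; nearly all actives have a fitted effect of over 60% in size; about a fifth of the inactives were tested at one dose only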
#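 Cells stably selected in G418 were plated at 2000/well, grown 16-24 hr, then given compounds in DMSO with the PDE inhibitor […] (300 uM solution added) for 30 min at 37C; cAMP was read by HTRF.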
# gsp antag – qHTS for Antagonists of gsp, the Etiologic Mutation Responsible for Fibrous Dysplasia/McCune-Albright Syndrome: qHTS; AID 624288, 2012; Potency, µM (top dose mostly 76.9 µM), for the others: at the highest dose activity change, negative = inhibition, hits mostly inhibitors; actives 0.4% (n = 340,000); gsp-mutant cells, cAMP HTRF, 30 min; control for the full effect not named in the record; active = falling curve of any shape with a large fitted effect; inconclusive = falling curve, mostly with a smaller effect; inactive = flat or rising curve; cell line not stated here;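 further: intracellular cAMP measured with PDE inhibitor Ro 20-1724 present during compound exposure; potency means the concentration at half of the fitted maximal effect; on the % scale 0 is the no-effect control and ±100 the full control effect; nearly all actives have a fitted effect of over 65% in size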
#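 Cells in G418 medium, seeded 16-24 h, 37C; buffer exchange to DPBS + 1 mM CaCl2, 0.5 mM MgCl2, 0.05% BSA; cpds in DMSO + […] (300 uM stock), 30 min 37C; HTRF cAMP detection.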
# Menin-MLL FL inh – qHTS Assay for Inhibitors Targeting the Menin-MLL Interaction in MLL Related Leukemias: Competition With Fluorescein Labeled MLL-derived Peptide; 290,000 tested, under 10 active; FP activity change, % at 61.4 µM; Fluorescence polarization, fluorescein-MLL peptide displacement from menin; AID 1766, 2009; inconclusive = falling polarisation curve, or a change in total fluorescence; inactive = total fluorescence flat and polarisation flat or rising; no compound was filed as active; the % refers to the polarisation; negative = inhibition;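 further: % of control where 0% means no effect; inhibitors lower the polarisation; unlabelled MLL peptide was the positive control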
# * hit, by the source's call; u = inconclusive; x = not tested or not shown; & = joins results of further samples; [ ] = remark or other dose.
nr	canonical_smiles	gsp antag	ClpP mod	Menin-MLL FL inh	gsp ag	D2 PAM	TRPV1 PAM	Sfp PPTase inh
1	O=C(COc1ccccc1Cl)Nc1ccc(CN2CCCCC2)cc1	10%	x	-0.5	-19%	-4	21	8%
2	O=C(NC1CC2CCC(C1)N2C(=O)NC1CCCCC1)NC12CC3CC(CC(C3)C1)C2 (stereo unspecified)	3%	-3.1%	1.0	-5%	-14	6	10%
3	Brc1ccc(Nc2nc(-c3cccnc3)cs2)cc1	-3%	x	-4.1	6%[15.4 µM]	-10	-4	45µM*
4	CC(C)CCNC(=O)c1c[nH]c2ccc(S(=O)(=O)N3CCOCC3)cc2c1=O	-26%	3.4%	-0.6	3%	1	-2	5%
5	COc1ccc(CNC(=O)c2sc(=S)n(-c3ccc(OC)cc3)c2N)cc1	-10%	1.0%	1.5	-50%[inhibitor]	-4	6	20µM*
6	Nc1c(C(=O)NCc2ccccc2)c2nc3ccccc3nc2n1CCCN1CCOCC1	-19%	4.6%	-0.2	-5%	-2	-13	-22%
7	CC(=O)NC1=C(Nc2ccc(N(C)C)cc2)C(=O)c2ccccc2C1=O	u	0.3%	-0.1	u	2	u	-14%
8	NC(=O)c1ccc(N2CCN(S(=O)(=O)c3ccccc3)CC2)c([N+](=O)[O-])c1	u	x	1.4	2%[15.4 µM]	-1	16	9%
9	O=C(COc1ccc(-c2nnco2)cc1)NC1CCCc2ccccc21 (stereo unspecified)	-6%	1.4%	2.6	3%	-8	1	12%
10	CCOCCCNC(=O)c1ccc(CS(=O)(=O)Cc2ccc(C)cc2)o1	-4%	1.1%	3.4	-4%	0	-1	1%
11	Nc1nc(NCC2CCCO2)nc(Nc2ccc(Cl)cc2)c1[N+](=O)[O-] (stereo unspecified)	0%	x	1.1	3%[15.4 µM]	-4	-5	8%
12	CCOC(=O)Cn1nc(C)n(-c2ccccc2)c1=O	8%	0.0%	3.3	u	-7	-7	3%
13	CCOc1ccc(NC(=O)C2CCN(S(=O)(=O)c3cccs3)CC2)cc1	-17%	u	-19	-1%[15.4 µM]	11	2	6%
14	O=C(Nc1ccc([N+](=O)[O-])cc1)c1cn(-c2ccccc2)nc1-c1cc2ccccc2o1	-6%	u	7.5	u	-19	28	15%
15	CC(C)(C)C(=O)Oc1cc(N)n(S(=O)(=O)c2ccc(F)cc2)n1	-12%	2.8%	1.6	2%	-4	-3	6%
16	CCCCCCCC#Cc1ccccc1/C=N/S(=O)c1ccc(C)cc1 (stereo unspecified)	7%	-7.7%	0.0[11.7 µM]	13%	-8	6	25µM*
17	O=C(NCc1cccs1)C1CCN(C(=O)NCc2ccccc2)CC1	10%	-2.3%	-1.0	-2%	5	-14	1%
18	CCc1nnc(NC(=O)c2ccc(OC)cc2OC)s1	-1%	-5.6%	3.4	18%	-2	14	-3%
19	NC(=O)c1ccccc1N1CCCCC1	5%	1.0%	0.4	11%	-2	1	5%
20	CC1CC(C)(C)NC(=S)N1CCCC(=O)Nc1ccc2c(c1)OCCO2 (stereo unspecified)	-18%	0.8%	0.8	-1%[15.4 µM]	-4	-3	16%
21	Cc1cc(C)nc(SCCS(=O)(=O)Cc2ccccc2)n1	0%	0.7%	6.2	6%	11	2	9%
22	NNC(=O)c1csc(CS(=O)(=O)c2ccc(Cl)cc2)n1	2%	x	0.1	-6%[15.4 µM]	-4	-10	10%
23	COc1cccc(CN2C(=NC(=O)C3CC3)SC3CS(=O)(=O)CC32)c1 (stereo unspecified)	7%	-1.2%	x	1%	-9	-12	4%
24	CCCCNC(=O)CCC(=O)Nc1ccc2nc(N3CCCCC3)cc(C)c2c1	6%	3.4%	0.7	u	-13	6	17%
25	CCSc1nc(C)nc2sc(C)c(C)c12	-20%	-2.4%	1.0	7%	3	0	8%
26	Oc1ccc(N=Cc2c(O)ccc3ccccc23)cc1	-22%	3.9%	u	-8%	-1	-1	u
27	CCOC(=O)c1cc(CC)sc1NC(=O)c1cc(OCC)c(OCC)c(OCC)c1	-2%	-20%	0.0	-58%[inhibitor]	13	-7	-16%
28	CCc1ccc(NC(=O)CSc2nnc(Cc3cccn3C)n2-c2ccc(OC)cc2)cc1	-10%	1.2%	2.2	-9%	3	-15	1%
29	CCOC(=O)C(=O)Nc1ccc(S(=O)(=O)N2CCOCC2)cc1OC	-5%	-1.5%	3.3	-46%[inhibitor]	-6	1	10%
30	CN(C(=O)COC(=O)c1cccs1)c1ccccc1	x	0.0%	x	1%	-2	x	x

# Another view of part of the listing above.
14	O=C(Nc1ccc([N+](=O)[O-])cc1)c1cn(-c2ccccc2)nc1-c1cc2ccccc2o1
  gsp antag: -6%
  ClpP mod: u
  Menin-MLL FL inh: 7.5
  gsp ag: u
  D2 PAM: -19
  TRPV1 PAM: 28
  Sfp PPTase inh: 15%
15	CC(C)(C)C(=O)Oc1cc(N)n(S(=O)(=O)c2ccc(F)cc2)n1
  gsp antag: -12%
  ClpP mod: 2.8%
  Menin-MLL FL inh: 1.6
  gsp ag: 2%
  D2 PAM: -4
  TRPV1 PAM: -3
  Sfp PPTase inh: 6%
16	CCCCCCCC#Cc1ccccc1/C=N/S(=O)c1ccc(C)cc1 (stereo unspecified)
  gsp antag: 7%
  ClpP mod: -7.7%
  Menin-MLL FL inh: 0.0[11.7 µM]
  gsp ag: 13%
  D2 PAM: -8
  TRPV1 PAM: 6
  Sfp PPTase inh: 25µM*
17	O=C(NCc1cccs1)C1CCN(C(=O)NCc2ccccc2)CC1
  gsp antag: 10%
  ClpP mod: -2.3%
  Menin-MLL FL inh: -1.0
  gsp ag: -2%
  D2 PAM: 5
  TRPV1 PAM: -14
  Sfp PPTase inh: 1%

# Next section:
nr	canonical_smiles	gsp antag	ClpP mod	Menin-MLL FL inh	gsp ag	D2 PAM	TRPV1 PAM	Sfp PPTase inh
31	Cc1oc(-c2cccc(C(F)(F)F)c2)nc1CN1CCN(c2ccccn2)CC1	2%	x	2.4	-8%[15.4 µM]	-16	-3	4%
32	CSc1nc(N(C)C)nc(N(C#N)CCOC(C)=O)n1	0%	x	0.2	3%	6	9	2%
33	N#CC1CN(C(c2ccccc2)c2ccccc2)C1	-3%	x	0.9	2%	-2	27	12%
34	O=C(CS(=O)(=O)c1ccc(F)cc1)Nc1nnc(-c2cccs2)o1	2%	x	x	-10%[15.4 µM]	-2	11	x
35	CCOCc1nnc(NC(=O)COC)s1	8%	0.3%	5.0	-36%[inhibitor]	0	-3	50µM*
36	C(=C\c1ccncc1)/c1ccccc1	2%	-3.1%	-1.9&-0.8	u	-8	-3	5%&15%
37	CCN(CC)c1nc(N2CCN(C)CC2)nc2ccccc12	-10%	0.3%	-1.9	24%[15.4 µM]	-16	-21	-1%
38	CCOc1ccc(S(=O)(=O)n2nc(C)cc2C)cc1	-3%	-0.4%	-0.6	11%[15.4 µM]	1	-1	11%
39	COc1ccc(OCCOCC(O)CN2CCOCC2)cc1 (stereo unspecified)	6%	-0.9%	1.5	-11%	-4	-1	-6%
40	CN(C)/C=C1\C(=O)Nc2ccccc21	-9%	0.6%	1.8	-43%[inhibitor]	-20	-2	10%
41	CC(=O)C1=C(C)N(Cc2ccccc2)C(=O)N[C@H]1CCc1ccccc1	4%	-1.3%	0.4&2.8	-15%	-8	3	25%&-20%
42	CC1CN(c2cc(-c3ccccc3)c3ccccc3n2)CC(C)O1 (stereo unspecified)	-14%	25µM*	3.0	1%	-26	5	-24%
43	CCCc1nc([N+](=O)[O-])c(S(=O)(=O)c2ccccc2)n1CC(C)C	-2%	x	0.7	-19%	-3	-5	-6%
44	Cc1nc(C)c(C(=O)Nc2ccc(C)c(F)c2)o1	10%	-0.6%	0.9	-44%[inhibitor]	-7	21	-21%
45	CCN(CC)c1ccc(/C=N\NC(N)=O)cc1	-14%	25µM*	2.0	1%	-27	17	-8%
46	CC(C)(Oc1ccc(Cl)cc1)C(=O)NCc1n[nH]c(=O)c2ccccc12	0%	x	x	-12%[15.4 µM]	4	-17	x
47	C[C@]12c3[nH]c4cc(-c5ccco5)ccc4c3CCN1C(=O)[C@@H](CC(=O)NCC13CC4CC(CC(C4)C1)C3)C[C@@H]2C(=O)N1CCCCC1	-19%	3.9%	x	x	-10	x	x
48	COC(=O)CCSc1cc([N+](=O)[O-])cc2c1c(C1OCCO1)nn2-c1ccccc1	-10%	-2.3%	-18	u	13	-2	-6%
49	COc1ccccc1NS(=O)(=O)/C=C/c1ccccc1	-5%	0.6%	-0.3	-68%[inhibitor]	-21	-9	2%
50	O=C(O)CCN1C(=O)/C(=C/c2ccc(-c3nc4ccccc4s3)o2)SC1=S	u	-2.3%	u	-58%[inhibitor]	-12	14	-21%
51	CCN1C(=O)/C(=C2/C=Cc3ccccc3N2C)OC1=S	12%	-1.1%	u	-6%	-8	-4	-19%
52	Cc1cccc(NC(=O)c2ccc(NCC3CCCO3)c([N+](=O)[O-])c2)c1 (stereo unspecified)	-4%	1.0%	1.3	-69%	-21	-8	0%

# A different layout for two compounds above:
(50) O=C(O)CCN1C(=O)/C(=C/c2ccc(-c3nc4ccccc4s3)o2)SC1=S
  gsp antag: u
  ClpP mod: -2.3%
  Menin-MLL FL inh: u
  gsp ag: -58%[inhibitor]
  D2 PAM: -12
  TRPV1 PAM: 14
  Sfp PPTase inh: -21%

(51) CCN1C(=O)/C(=C2/C=Cc3ccccc3N2C)OC1=S
  gsp antag: 12%
  ClpP mod: -1.1%
  Menin-MLL FL inh: u
  gsp ag: -6%
  D2 PAM: -8
  TRPV1 PAM: -4
  Sfp PPTase inh: -19%
